# Vif TR-FRET = inhibitors of Vif binding to APOBEC3G peptide, primary screen, biochemical, TR-FRET, GST-Vif 1-94, biotin-A3G peptide, dose response retest (AID 1117319) | Virion infectivity factor (Human immunodeficiency virus type 1 group M subtype B (isolate … | TR-FRET GST-Vif / biotin-A3G peptide binding; higher % means a stronger effect; test concentration not given here; strong numbers were not always called active | one-dose inhibition, %; IC50 in µM for titrated hits | 260,000 tested, 0.57% active;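 active = above the screen mean plus three standard deviations and confirmed in dose response; inconclusive = results disagree or hit not tested in dose response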;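 also: Vif residues 1-94 fused to GST binding biotinylated APOBEC3G peptide 110-148; 0% = full assay without inhibitor and 100% = GST in place of GST-Vif; retest series ran down from 100 µM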
# RanGTP-Imp inh = inhibitors of RanGTP-importin-beta interaction, primary screen, biochemical, FRET, CFP-Ran, YFP-importin-beta, homogeneous. Ran GTPase (GTP-bound) - importin-beta complex. 300,000 tested, 1.1% active. AID 2216, 2009. inhibition, % (no concentration beside the values). cell-free CFP-Ran/YFP-importin-beta FRET ratio;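 active = most replicates above 15%; inconclusive = exactly half above 15%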;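 also: 0% = DMSO wells and 100% = Ran loaded with GDP instead of GTP; wells of about 40 µL received 100 nL stock; the first replicate is given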
# UCH37 inh = inhibitors of human UCH37 deubiquitinase, primary screen, biochemical, Ub-AMC cleavage, fluorescence; Ubiquitin carboxyl-terminal hydrolase isozyme L5 (Homo sapiens), Q9Y5K5; purified proteasome/UCH37; inhibition, % (no concentration beside the values); 330,000 tested, 0.33% active;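 active = mean of two replicates above 20%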;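 also: 0% = compound-free wells with enzyme and 100% = wells lacking proteasome; stock transfer was 100 nL into about 20 µL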
# Target sequence (Q9Y5K5 whole entry, looked up): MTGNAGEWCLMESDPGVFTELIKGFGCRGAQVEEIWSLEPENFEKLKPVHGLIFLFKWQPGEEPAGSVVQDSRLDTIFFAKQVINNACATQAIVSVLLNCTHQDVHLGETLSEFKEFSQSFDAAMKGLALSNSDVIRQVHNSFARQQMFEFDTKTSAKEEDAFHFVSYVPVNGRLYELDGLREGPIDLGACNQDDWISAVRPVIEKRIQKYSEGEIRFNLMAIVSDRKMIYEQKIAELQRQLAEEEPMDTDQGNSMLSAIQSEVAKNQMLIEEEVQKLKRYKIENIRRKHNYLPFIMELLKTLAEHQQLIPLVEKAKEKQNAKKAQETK
#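 Material: human UCH37 enzyme supplied as purified proteasome complex / Amount: 0.15 nM proteasome as dispensed / Buffer or medium: pH 7.4 Tris-HCl (50 mM) with ovalbumin, ATP-MgCl2, DTT / Times: preincubation 30 min, reaction 25 min, room temperature / Technique: AMC fluorescence from Ub-AMC cleavage, excitation 355 nm, emission 460 nm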
# E coli growth = E. coli growth inhibition, primary screen, OD600; Escherichia coli growth, 23 h; active compounds read low; OD600 absorbance (test concentration not listed); 330,000 tested, 0.21% active; AID 1053175, 2014;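 active = OD600 absorbance below the run mean of sample wells minus 3.6 SD, in any replicate, cut at about 0.56 in these data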;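 also: stock transfer was 300 nL into about 60 µL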
# FGF22 binding = binders of human FGF22 protein, primary screen, FGF22 synaptogenesis inhibitor project, biophysical, thermal shift, single point; recombinant FGF22 thermal shift, SYPRO orange fluorescence; percent of sucrose octasulfate shift, DMSO zero; AID 651658, 2012; calls only at 9.99 µM; 340,000 tested, 1.5% active;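 active = melting point raised past a set limit in the mean and every replicate; inconclusive = no clear call; three in four hits are not shown here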
# Target sequence (Q9HCT0 whole entry, looked up): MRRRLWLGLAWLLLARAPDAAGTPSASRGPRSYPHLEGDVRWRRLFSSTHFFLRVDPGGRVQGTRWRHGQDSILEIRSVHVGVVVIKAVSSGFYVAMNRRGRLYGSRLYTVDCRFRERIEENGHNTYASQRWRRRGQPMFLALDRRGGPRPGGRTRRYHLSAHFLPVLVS
# AF4-AF9 inh = inhibitors of AF4 peptide binding to AF9, primary screen, biochemical, AlphaScreen, biotin-AF4 peptide, FLAG-AF9, single point | 350,000 tested, 0.47% active | Protein AF-9 (Homo sapiens), P42568 | inhibition, % at 10 µM | AID 651704, 2012;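 active = every replicate reaching a set inhibition limit, whatever the replicate mean, cut at about 25% in these data; inconclusive = mean inhibition reaches that limit but some replicates miss it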;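 also: 0% = plate neutral control median and 100% = total signal loss; the record names both 10 and 1 µM as test concentration; the first replicate is given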
# Target sequence (P42568 whole entry, looked up): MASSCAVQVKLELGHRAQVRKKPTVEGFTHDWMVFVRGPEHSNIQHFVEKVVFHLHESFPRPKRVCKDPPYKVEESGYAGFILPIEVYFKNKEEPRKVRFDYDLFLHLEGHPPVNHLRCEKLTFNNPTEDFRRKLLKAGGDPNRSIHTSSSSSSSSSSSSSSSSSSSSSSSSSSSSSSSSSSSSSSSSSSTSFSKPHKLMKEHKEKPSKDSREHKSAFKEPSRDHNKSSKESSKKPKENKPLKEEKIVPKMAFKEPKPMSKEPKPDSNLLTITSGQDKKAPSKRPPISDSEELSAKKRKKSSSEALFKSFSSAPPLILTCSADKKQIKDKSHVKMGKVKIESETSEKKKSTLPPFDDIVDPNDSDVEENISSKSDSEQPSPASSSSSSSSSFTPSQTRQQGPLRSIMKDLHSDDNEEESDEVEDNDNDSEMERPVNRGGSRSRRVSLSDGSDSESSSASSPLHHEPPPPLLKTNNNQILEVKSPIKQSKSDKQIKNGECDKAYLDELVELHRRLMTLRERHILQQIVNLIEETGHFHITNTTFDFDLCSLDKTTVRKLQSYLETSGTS
# HNF4A DNA FP = change in binding of human HNF4A to DNA, primary screen, biochemical, fluorescence polarization, FITC-DNA; 1 h; activity change, % at 10 µM; 360,000 tested, 0.3% active; AID 1224865, 2016; in the data active = activity change above about 30%, passing the limit was not always enough;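 also: controls were the assay level and a saturating level of protein; the project sought stronger binding though the title names inhibitors; some compounds called inactive have numbers as strong as hits; positive values seem to mean higher polarization but the record does not say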
# An asterisk follows results filed as active; i = inactive; ? = inconclusive; nt = not tested or not shown. Some of the compounds tested; rates above refer to the full screens.
SMILES,Vif TR-FRET,RanGTP-Imp inh,UCH37 inh,E coli growth,FGF22 binding,AF4-AF9 inh,HNF4A DNA FP
CCOC(=O)[C@H]1[C@H]2COc3ccc(C)cc3[C@@H]2N2C(=O)[C@@H](C)NC(=O)[C@@]12C,nt,nt,2.4,nt,i,1.3,-5.6
COc1ccc(S(=O)(=O)N2CCC(C(=O)N[C@@H](C)C(=O)N3CCCC3)CC2)cc1,-6%,nt,nt,nt,i,-2.5,-1.2
COc1cc(/C=C(/C#N)C(=O)NCc2ccccc2)cc(OC)c1OC,5%,5.4,0.3,0.65,i,3.3,-2.1
Cc1noc(C)c1CSCC(=O)N(C)CC(=O)Nc1ccccc1Br,2%,6.0,0.5,0.73,i,-1.3,-3.4
COc1cc(CNC(=O)CCCCCCC(C)C)ccc1O,nt,nt,3.2,0.68,i,-2.1,2.5
COc1cc(C2C3C(=O)N(c4ccccc4)C(=O)C3ON2c2ccccc2)ccc1O (stereo not given),1%,1.0,4.6,0.66,nt,nt,1.5
CN(C(=O)c1ccc(NC(=O)C2CCCN(C(=O)OC(C)(C)C)C2)cc1)C1CC1 (stereo not given),nt,nt,1.8,0.72,i,-7.4,-4.5
O=C(Nc1ccc2c(c1)OCCO2)c1ccc(Cl)cc1Cl,nt,1.8,0.7,0.63,i,-8.3,-4.0
CN(C)/C=C(/C(=O)c1ccc(F)cc1)S(=O)(=O)c1ccc(F)cc1,-15%,-0.6,2.4,nt,i,-1.3,-0.4
Cc1cccc2cc(CN(C(=O)c3cccs3)c3ccccc3)c(=O)[nH]c12,11%,-3.6,-5.0,0.7,nt,nt,0.7
CC(CCc1ccccc1)NC(=O)c1ccc(-n2cncn2)c([N+](=O)[O-])c1 (stereo not given),3%,nt,4.2,0.69,i,1.6,3.1
CCn1cc(Cl)c(C(=O)NNC(=O)CCn2cc([N+](=O)[O-])cn2)n1,-2%,4.4,5.9,0.75,i,-2.0,1.5
N#C/C(=C(/O)CCl)c1nc(-c2ccccc2)cs1,24%,?,16,0.62,i,nt,13
COc1ccc(OC)c(C(=O)c2coc3ccc(OCC(=O)O)cc23)c1,2%,2.6,-18,0.72,nt,nt,4.0
COC(=O)c1ccc(CSc2nc3c(cnn3-c3ccc(Cl)cc3)c(=O)[nH]2)o1,-3%,nt,2.6,0.69,nt,nt,3.3
O=C(Cn1ncc(Cl)c(Cl)c1=O)NCC1CCCCC1,nt,nt,4.2,0.7,i,-1.9,-2.0
O=C(Nc1cc(F)ccc1F)C1CCCN1S(=O)(=O)c1cccc2nsnc12 (stereo not given),nt,-1.3,2.6,0.63,i,1.0,-2.0
O=C(NC1CC1)C1=C[C@@H](c2ccc(C(F)(F)F)cc2)C[C@@H](OCCCCO)O1,nt,-0.5,-1.4,nt,i,0.1,3.9
CCC(C)NC(=O)Cn1nc([N+](=O)[O-])c(Cl)c1C (stereo not given),0%,nt,1.1,0.76,nt,nt,-0.4
COc1cccc(NC(=O)CN(C)C(=O)c2cc(S(=O)(=O)N3CCCCCC3)ccc2OC)c1,-5%,nt,-1.3,0.66,i,-1.8,7.6

# Single records (already shown). Screens in order: Vif TR-FRET, RanGTP-Imp inh, UCH37 inh, E coli growth, FGF22 binding, AF4-AF9 inh, HNF4A DNA FP
# `COc1cccc(NC(=O)CN(C)C(=O)c2cc(S(=O)(=O)N3CCCCCC3)ccc2OC)c1` is listed with -5%, nt, -1.3, 0.66, i, -1.8, 7.6
# `CCOC(=O)[C@H]1[C@H]2COc3ccc(C)cc3[C@@H]2N2C(=O)[C@@H](C)NC(=O)[C@@]12C` is listed with nt, nt, 2.4, nt, i, 1.3, -5.6
# `N#C/C(=C(/O)CCl)c1nc(-c2ccccc2)cs1` is listed with 24%, ?, 16, 0.62, i, nt, 13

# Remaining list, next part.
SMILES,Vif TR-FRET,RanGTP-Imp inh,UCH37 inh,E coli growth,FGF22 binding,AF4-AF9 inh,HNF4A DNA FP
CCN(CC)C(=O)c1sc2nc(-c3cccs3)cc(-c3ccc(Cl)cc3)c2c1N,-31%,4.4,-34,0.76,nt,nt,10
CC(C)(C)c1ccccc1NC(=O)Nc1nc(C(N)c2ccccc2Cl)cs1 (stereo not given),nt,nt,nt,nt,i,-4.0,-0.2
Cc1cc(Br)ccc1NC(=O)c1ccccc1-c1ccccc1,nt,3.3,-1.2,0.69,i,5.4,-1.4
COc1ccc(/C=N/Nc2nc(C)cc(-c3ccccc3)n2)cc1OC,-5%,-0.9,nt,nt,i,3.8,1.9
O=C(NCc1ccccc1)[C@@H]1C[C@H]1[C@@H](NP(=O)(c1ccccc1)c1ccccc1)c1ccccc1,-2%,0.6,3.8,nt,i,0.5,2.6
COc1ccc([N+](=O)[O-])cc1NC(=O)C(C)OC(=O)/C=C/c1ccco1 (stereo not given),18%,2.2,5.4,0.68,nt,nt,-0.3
COc1ccc(C(=O)N2CCN(c3ccccc3Cl)CC2)cc1S(=O)(=O)NC1CC1,nt,nt,4.3,0.72,i,3.1,-1.5
O=C(CN1CCN(C(=O)c2ccco2)CC1)Nc1ccc2c(c1)OCO2,-12%,0.1,1.4,0.68,nt,nt,-0.5
CCOC(=O)n1c(O)c(N=NC(N)=S)c2cc(C)ccc21,-4%,-0.9,1.6,0.67,i,-3.1,-1.5
Cc1ccccc1-n1nc2c(c1NC(=O)c1cc3ccccc3oc1=O)CS(=O)(=O)C2,4%,17*,2.5,0.67,nt,nt,nt
COC(=O)c1c(C)[nH]c(C(=O)C(C)Sc2nnc(-c3cc(OC)c(OC)c(OC)c3)o2)c1C (stereo not given),2%,-1.9,1.9,0.74,nt,nt,0.1
O=C(OCC(=O)N1CCN(S(=O)(=O)c2ccc(Cl)cc2)CC1)c1cc(Br)ccc1O,-261%,-4.0,2.7,0.68,i,-1.0,2.2
Cc1ccc(C)c(Nc2cc(C(=O)NCc3cccnc3)c3ccccc3n2)c1,nt,0.1,2.0,0.67,i,3.5,-0.3
Fc1cccc(Cc2c(C3CCCCC3)nc3c4ccccc4ccn23)c1,nt,nt,nt,nt,i,1.0,0.2
O=C(N1CCOCC1)N1CCN(S(=O)(=O)c2ccc(F)cc2)CC1,nt,0.8,3.3,0.68,i,0.6,3.6
O=C(CN1C(=O)CCC1=O)Nc1ccc(Br)cc1,2%,0.0,3.0,0.68,nt,nt,3.8
CC(=O)c1c(C)[nH]c(C(=O)OCc2cccc(Cl)c2)c1C,nt,-2.2,2.0,0.64,i,-2.3,1.5
COc1ccc(C(=O)ON=C2CCN(c3ccc([N+](=O)[O-])cc3)CC2)cc1,10%,-3.0,6.8,0.71,nt,nt,2.4
CCOc1ccccc1NS(=O)(=O)c1cccs1,?,-1.5,4.7,0.69,nt,nt,0.2
COCCNCC#CCOc1ccc(OC)cc1,?,3.5,2.0,0.67,nt,nt,-0.3
CC(=O)Nc1nc2ccc(S(=O)(=O)N3CCCC3)cc2s1,nt,1.9,0.6,0.67,i,-1.1,-3.5
Cc1cccc(NC(=O)c2ccccc2C(=O)Nc2cccc(C)c2)c1,nt,2.3,5.7,0.68,i,1.1,-1.4
Cc1oc(-c2ccccc2F)nc1CN1CCC(C(=O)NCCC2=CCCCC2)CC1,3%,-0.6,7.0,0.67,nt,nt,-0.9
CCCN1C(=O)/C(=C2/C=Cc3ccccc3N2CC)SC1=S,8%,-9.1,3.6,0.66,i,26*,2.7
Cc1cc(C)cc(N(CC(=O)NC2CCCCCC2)S(=O)(=O)c2c(C)[nH]c(=O)[nH]c2=O)c1,-8%,?,3.1,0.7,i,13,-5.8
COc1ccc(CCNC(=O)c2n[nH]c(=O)c3ccccc23)cc1,2%,7.2,-1.1,0.75,nt,nt,-0.3
Cc1sc2ncn(CC(=O)N3CCC(C(N)=O)CC3)c(=O)c2c1S(=O)(=O)N1CCOCC1,nt,-3.8,0.2,0.65,i,-2.0,-1.2
Cc1c(NC(=S)NC(=O)C(C)(C)C)c(=O)n(-c2ccccc2)n1C,nt,3.2,-3.1,nt,nt,nt,-2.8
O=C(CNS(=O)(=O)c1ccccc1)NCc1ccccn1,30%,-2.3,2.8,0.67,nt,nt,3.1
CCOC(=O)C1(CCCc2ccccc2)CCN(C(=O)CCC2=NNC(=O)CC2)CC1,nt,2.0,3.1,0.69,i,2.0,2.8
Cc1cnc(NC(=O)CSc2nnc(-c3ccccc3)n2Cc2ccccc2)s1,2%,-0.9,2.0,0.72,nt,nt,4.5
Cc1cc(C)c(C(=O)N2CCCC(N3CCN(c4cccc(C(F)(F)F)c4)CC3)C2)o1 (stereo not given),nt,1.2,0.4,0.63,i,11,-0.2
CCOc1cccc(C(=O)Nc2ccc(NC(=O)c3cc4ccccc4o3)c(OC)c2)c1,nt,0.2,-243,0.69,i,-0.1,1.5
CCN(CC)CC(=O)Nc1sc(C)cc1C(=O)c1ccccc1,-10%,-0.9,2.6,0.64,i,12,-0.9
CCCc1ccc(-c2cc(NC(=O)CSc3nnc(N)s3)n(-c3ccccc3)n2)cc1,nt,2.1,2.1,0.72,i,6.5,0.8
Cc1nnc(NC(=O)Cn2nc(C)c3ccccc3c2=O)s1,-6%,-4.3,2.8,0.71,i,-2.2,-2.2
CCNC(=S)N/N=C(\C)c1cccc(OC)c1,-11%,0.7,nt,nt,i,5.0,1.2
CCOc1ccc(-c2nnc(SCC(=O)NC3CC3)o2)cc1,-5%,nt,1.4,0.69,i,-0.3,-0.6
COc1ccccc1Cc1c(-c2ccco2)nc2ccc(Cl)cn12,nt,nt,nt,nt,i,-2.2,-3.2
O=C(CCC(=O)c1ccc(F)cc1)OC1CCOC1=O (stereo not given),2%,0.3,2.3,0.78,nt,nt,-1.4
Cc1cccc(C)c1NC(=O)NC1(C(=O)N2CCCCC2)CCCCC1,nt,2.7,-0.6,0.71,i,-2.5,1.8
O=C(NCc1ccccn1)Nc1ccc(Cl)c(Cl)c1,?,0.5,0.2,0.59,nt,nt,1.0
CCN(CC)S(=O)(=O)c1cccc(NC(=O)COC(=O)c2ccc(Br)o2)c1,-4%,-0.9,1.3,0.71,nt,nt,1.0
CCN(CC)C1CCCCC1NS(=O)(=O)c1ccc(Cl)cc1 (stereo not given),7%,-2.0,3.5,0.76,i,-1.6,-0.4
O=Cc1c(-c2ccc(F)cc2)nc2ccccn12,8%,11,4.4,0.7,i,-2.4,0.8
O=C(CCSc1nnc(-c2ccncc2)o1)Nc1ccc(Cl)cc1,4%,0.6,0.4,0.63,nt,nt,-5.8
Cc1cnc(C(=O)Nc2ccccc2-n2cccc2)cn1,15%,-1.2,0.3,0.69,nt,nt,3.1
O=C(NCCO)/C(=C\c1cccc([N+](=O)[O-])c1)NC(=O)c1cccs1,nt,nt,nt,nt,i,-2.8,0.2
Cn1ncc(Cl)c1C(=O)N1CCN(c2ncccn2)CC1,?,2.4,-5.3,0.72,i,-1.1,-4.2
CCOC(=O)C(=O)NCC(c1cccs1)S(=O)(=O)c1ccc(C)cc1 (stereo not given),nt,8.7,-0.2,0.65,i,-4.0,2.1
Cc1cc(C)nc(N2CCN(C(=O)CCC(=O)Nc3nnc(CC(C)C)s3)CC2)n1,nt,1.4,-1.2,0.66,i,0.2,4.0
CCOc1ccc(/C=N/N2C(C)CCCC2C)cc1OC (stereo not given),-5%,5.0,nt,nt,i,-4.7,2.8
COc1ccc(NC(=O)c2ccc(COc3ccccc3OC)o2)cc1OC,5%,13*,5.3,0.67,nt,nt,1.9
CCCCn1c(SCC(=O)Nc2nnc(C)s2)nc2c1c(=O)n(C)c(=O)n2C,10%,1.3,0.0,0.72,nt,nt,2.0
